# Screening results deposited in PubChem BioAssay by several laboratories.
# Ecoli rRNA inh: selective bacterial rRNA inhibition in E. coli; E. coli WT GFP vs humanized-ribosome RFP mutants, fluorescence, 24 h; hits give low values; DMSO median 0, no signal -100; GFP signal change (wild-type ribosome), % (concentration not given with the values); 1.6% of 350,000 active; AID 720706;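 active = significant combined selectivity score with lowered wild-type GFP, culture density cut under 30%, mutant RFP and density less affected; inactive = any of these conditions unmet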; note: one replicate is shown; some compounds called inactive have numbers as strong as hits
# FGF22 binding: shifts melting point of recombinant human FGF22 | 1.5% of 340,000 active | AID 651658 | calls only at 9.99 µM | Q9HCT0 | recombinant FGF22 thermal shift, SYPRO orange fluorescence; percent of sucrose octasulfate shift, DMSO zero;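 active = melting point raised past a set limit in the mean and every replicate; inconclusive = no clear call; three in four hits are not shown here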
# Vif A3G: HIV-1 Vif–A3G interaction blockers – biochemical, TR-FRET, GST-Vif 1-94, biotin-A3G peptide, dose response retest, primary screen (AID 1117319) | TR-FRET GST-Vif / biotin-A3G peptide binding; higher % means a stronger effect; test concentration not given here; strong numbers were not always called active | inhibition, %; hits with a dose series show IC50 in µM | 0.57% of 260,000 active;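 active = above the screen mean plus three standard deviations and confirmed in dose response; inconclusive = results disagree or hit not tested in dose response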;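 note: Vif residues 1-94 fused to GST binding biotinylated APOBEC3G peptide 110-148; 0% = full assay without inhibitor and 100% = GST in place of GST-Vif; retest series ran down from 100 µM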
# HNF4A DNA FP: change in binding of human HNF4 alpha to DNA | P41235 | HNF4a-FITC DNA binding, fluorescence polarization, 1 h | activity change, % at 10 µM | 0.3% of 360,000 active; in the data active = activity change above about 30%, passing the limit was not always enough;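 note: controls were the assay level and a saturating level of protein; the project sought stronger binding though the title names inhibitors; some compounds called inactive have numbers as strong as hits; positive values seem to mean higher polarization but the record does not say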
# Target sequence (P41235 whole entry, looked up): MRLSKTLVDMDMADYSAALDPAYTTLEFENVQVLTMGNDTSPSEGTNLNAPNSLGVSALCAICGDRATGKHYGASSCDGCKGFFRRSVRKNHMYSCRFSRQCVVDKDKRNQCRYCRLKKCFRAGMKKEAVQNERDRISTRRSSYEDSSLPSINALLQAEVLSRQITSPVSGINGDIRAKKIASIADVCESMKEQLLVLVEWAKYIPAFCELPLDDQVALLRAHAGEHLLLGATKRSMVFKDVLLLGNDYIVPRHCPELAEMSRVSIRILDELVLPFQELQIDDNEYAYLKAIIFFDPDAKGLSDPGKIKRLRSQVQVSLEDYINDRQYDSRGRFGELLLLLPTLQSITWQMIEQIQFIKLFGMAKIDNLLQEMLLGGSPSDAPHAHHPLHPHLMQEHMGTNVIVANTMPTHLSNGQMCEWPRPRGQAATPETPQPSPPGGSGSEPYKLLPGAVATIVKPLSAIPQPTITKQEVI
# MLL AF4-AF9 inh: MLL-AF4/AF9 protein interaction inhibition; P42568; AlphaScreen, biotin-AF4 peptide binding to FLAG-AF9; inhibition, % at 10 µM; 0.47% of 350,000 active; AID 651704;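 active = every replicate reaching a set inhibition limit, whatever the replicate mean, cut at about 25% in these data; inconclusive = mean inhibition reaches that limit but some replicates miss it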;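 note: 0% = plate neutral control median and 100% = total signal loss; the record names both 10 and 1 µM as test concentration; the first replicate is given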
# Target sequence (P42568 whole entry, looked up): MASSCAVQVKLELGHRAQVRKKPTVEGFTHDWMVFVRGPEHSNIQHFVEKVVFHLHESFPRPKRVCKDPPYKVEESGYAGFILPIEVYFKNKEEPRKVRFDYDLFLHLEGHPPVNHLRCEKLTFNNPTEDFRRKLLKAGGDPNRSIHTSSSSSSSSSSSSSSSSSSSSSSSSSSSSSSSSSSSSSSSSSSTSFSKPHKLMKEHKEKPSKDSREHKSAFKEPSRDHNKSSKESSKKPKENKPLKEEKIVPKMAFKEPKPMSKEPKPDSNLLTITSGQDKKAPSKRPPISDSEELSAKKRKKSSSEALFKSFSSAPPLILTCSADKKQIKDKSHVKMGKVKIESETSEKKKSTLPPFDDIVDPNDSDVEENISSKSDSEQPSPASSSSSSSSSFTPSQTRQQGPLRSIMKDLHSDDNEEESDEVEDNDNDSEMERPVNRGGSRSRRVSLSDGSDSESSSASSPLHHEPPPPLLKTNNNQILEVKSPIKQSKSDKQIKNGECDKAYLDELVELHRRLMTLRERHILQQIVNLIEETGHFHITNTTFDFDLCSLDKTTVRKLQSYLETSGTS
# ALR inh: blocks human ALR sulfhydryl oxidase activity; purified ALR, DTT oxidation, H2O2 HRP-luminol luminescence; inhibition, % (concentration not given with the values); 3.8% of 290,000 active; AID 485317;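 active = mean and each replicate at 75% or more; inconclusive = only one of the two met; inactive = neither met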;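 note: stock transfer was 7.5 nL into about 7.5 µL; 0% = neutral wells and 100% = wells with inactivated enzyme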
# Ecoli growth: E. coli growth inhibition; OD600 absorbance (concentration not given with the values); Escherichia coli growth, OD600, 23 h; hits give low values; 0.21% of 330,000 active;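 active = OD600 absorbance below the run mean of sample wells minus 3.6 SD, in any replicate, cut at about 0.56 in these data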;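 note: stock transfer was 300 nL into about 60 µL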
# Ecoli rRNA inh OD600: further read-out of Ecoli rRNA inh, marked with its call; OD600 change, %; measured here: OD600 growth;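 optical density of the mix in the first replicate; 0 = DMSO median and -100 = no signal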
# Ecoli rRNA inh RFP: recorded beside Ecoli rRNA inh, whose call it bears; RFP signal change, %; measured here: RFP humanized mutant strains;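 first replicate; 0 = DMSO median and -100 = no signal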
# An asterisk follows results filed as active; i = inactive; ? = inconclusive; · = no result given.
SMILES,Ecoli rRNA inh,Ecoli rRNA inh OD600,Ecoli rRNA inh RFP,FGF22 binding,Vif A3G,HNF4A DNA FP,MLL AF4-AF9 inh,ALR inh,Ecoli growth
O=C(Cn1c(=O)c2c(ncn2Cc2ccccc2)n(Cc2ccccc2)c1=O)N1CCCC1,·,·,·,·,12%,0.2,·,·,0.76
Nc1nc2ccccc2n1/N=C/c1ccc(-c2ccccc2)o1,·,·,·,·,8%,3.6,·,41,·
COC(=O)c1cc(C(=O)Nc2cccc(C)n2)cc([N+](=O)[O-])c1,·,·,·,·,0%,2.8,·,-10,0.72
CCC(C)(C)NC(=O)CCCSc1nc2ccccc2s1,-28,-40,-9.9,i,-7%,0.8,-1.4,32,0.68
CCOc1ccc2nc(COC(=O)c3ccncc3)c(C(=O)c3ccccc3)[n+]([O-])c2c1,5,10,-1.2,i,-10%,-1.5,2.0,-13,0.67
CCC(=O)OCC(=O)c1c(N)n(Cc2ccccc2)c(=O)n(C)c1=O,·,·,·,·,1%,0.4,·,6,0.76
C[C@@H]1CN([C@@H](C)CO)C(=O)c2cc(/C=C/c3ccccc3)cnc2O[C@H]1CN(C)Cc1ccccc1F,-25,-64,23,i,·,·,28*,·,·
COC(=O)CNC(c1ccccc1)c1cc(C)ccc1NC(=O)CNC(=O)OCc1ccccc1 (centres undefined),·,·,·,·,22%,5.2,·,0,0.7
CCCCn1c(N)c(N(CCOC)C(=O)c2ccc(S(=O)(=O)N(CC)c3ccccc3)cc2)c(=O)[nH]c1=O,7,4,-1.3,i,-5%,-1.9,-0.8,-8,0.7
CCOc1cc(/C=C2\SC(=S)N(Nc3ccccc3)C2=O)ccc1O,·,·,·,·,20%,32,·,81*,0.68
CCCCCCc1ccc(OCC(=O)OC)cc1OCC(=O)OC,-11,-4,-4.4,i,11%,-1.6,-22,-2,0.71
O=C(C1CC1)N1CC2(C1)[C@H](c1ccccc1)[C@@H](CO)N2Cc1ccccc1F,0,-4,-2.2,i,·,·,-2.4,·,·
C[C@@H]1CC[C@]2(C(=O)O[C@@H]3O[C@H](CO)[C@@H](O)[C@H](O)[C@H]3O)CC[C@]3(C)C(=CCC4[C@@]5(C)C[C@@H](O)[C@H](O)[C@@](C)(C(=O)O[C@@H]6[C@H](O)C[C@@]7(C)C(CC[C@]8(C)C7CC=C7[C@H]9[C@](C(=O)O[C@@H]%10O[C@H](CO)[C@@H](O)[C@H](O)[C@H]%10O)(CC[C@@H](C)[C@@]9(C)O)CC[C@]78C)[C@@]6(CO)C(=O)O)C5CC[C@]43C)[C@@H]2[C@]1(C)O (some centres undefined),10,0,5.6,i,12%,-1.9,-0.1,·,0.69
CCN(CC)CCOC(=O)c1ccc2c(c1)OCCO2,-3,0,-4.3,i,1%,-4.2,1.5,-3,0.66
CNC(=O)c1sc(=S)n(-c2ccc(OC)cc2)c1N,8,4,-0.1,i,9%,2.5,-0.3,4,0.72

# Shown as a hit in ALR inh (from the list above):
Compound,Ecoli rRNA inh,Ecoli rRNA inh OD600,Ecoli rRNA inh RFP,FGF22 binding,Vif A3G,HNF4A DNA FP,MLL AF4-AF9 inh,ALR inh
CCOc1cc(/C=C2\SC(=S)N(Nc3ccccc3)C2=O)ccc1O,·,·,·,·,20%,32,·,81*

# (more compounds)
SMILES,Ecoli rRNA inh,Ecoli rRNA inh OD600,Ecoli rRNA inh RFP,FGF22 binding,Vif A3G,HNF4A DNA FP,MLL AF4-AF9 inh,ALR inh,Ecoli growth
CC(=O)N1CCOc2ccc(S(=O)(=O)NC(C)c3ccccc3)cc21 (centres undefined),1,2,0.1,i,1%,1.1,-1.3,-1,0.6
COc1ccc(CN(Cc2nc3ccccc3c(=O)[nH]2)C(=O)c2ccco2)cc1,6,12,1.7,i,·,-0.1,-2.8,-6,0.69
O=C(C[C@H]1C(=O)N(c2ccc(Br)cc2)C[C@@H]1Cc1ccccc1)Nc1ccccc1,·,·,·,i,-4%,3.0,-0.6,·,·
Cc1ccc(-c2nn(C)c(=O)c3ccccc23)cc1CNC(=O)CSc1nc2ccccc2o1,·,·,·,·,8%,0.8,·,-4,0.75
Cc1ccc(C(=O)C2=C(O)C(=O)N(Cc3ccccc3)C2c2cccnc2)o1 (centres undefined),-6,0,-11,i,-7%,-4.1,-1.9,4,0.74
C/C=C/c1ccc([C@H]2[C@@H](CNC(C)=O)N(C(=O)Cc3ccncc3)[C@H]2CO)cc1,3,7,0.6,i,·,·,0.1,·,·
COc1ccc(S(=O)(=O)Nc2cccc3c2O[C@H](CN(C)Cc2ccc(C(F)(F)F)cc2)[C@@H](C)CN([C@@H](C)CO)C3=O)cc1,-3,-5,-1.2,i,·,·,2.1,·,·
C/C(=N/NC(=O)c1ccc(C)s1)c1cccc(NC(=O)COc2ccc(Cl)cc2C)c1,·,·,·,·,-2%,-3.9,·,-6,·
COc1ccc(-c2ccc(OC)c([C@H]3[C@H]4C=CC[C@@H](C)[C@@H]4C(=O)N3Cc3ccccc3)c2)cc1OC,7,6,1.9,i,4%,-1.6,2.6,-14,·
Cc1ccc(-c2nc(NCCCN(C)C)c3ccccc3n2)cc1,27,23,0.7,i,1%,-1.4,0.1,·,·
OCCn1nc(-c2ccccc2)cc1-c1ccccc1,-19,-30,-1.7,i,1%,14,5.2,-8,0.67
CCOc1ccc(NC(=O)NC2CC(=O)N(c3ccc(OC)cc3)C2)cc1 (centres undefined),13,13,6.3,i,·,3.7,0.9,-8,0.65
CCN(Cc1ccc(NC(C)=O)cc1)CC1CCCN(CCc2cccc(F)c2)C1 (centres undefined),5,5,2.3,i,5%,-0.8,1.7,-1,0.64
COC(=O)C1(CC2CC(c3cccc(Br)c3)=NO2)CCN(C(=O)OC(C)(C)C)CC1 (centres undefined),·,·,·,i,·,1.1,-8.4,0,0.81
O=C(O)/C(=C\c1cccc([N+](=O)[O-])c1)c1ccc(S(=O)(=O)N2CCCCC2)s1,5,-3,-1.6,i,·,-1.2,-24,4,0.71

# Sorted by heavy-atom count (descending): part of the list above
SMILES,Ecoli rRNA inh,Ecoli rRNA inh OD600,Ecoli rRNA inh RFP,FGF22 binding,Vif A3G,HNF4A DNA FP,MLL AF4-AF9 inh,ALR inh,Ecoli growth
O=C(Cn1c(=O)c2c(ncn2Cc2ccccc2)n(Cc2ccccc2)c1=O)N1CCCC1,·,·,·,·,12%,0.2,·,·,0.76
CCOc1ccc2nc(COC(=O)c3ccncc3)c(C(=O)c3ccccc3)[n+]([O-])c2c1,5,10,-1.2,i,-10%,-1.5,2.0,-13,0.67
CNC(=O)c1sc(=S)n(-c2ccc(OC)cc2)c1N,8,4,-0.1,i,9%,2.5,-0.3,4,0.72

# Next results follow.
SMILES,Ecoli rRNA inh,Ecoli rRNA inh OD600,Ecoli rRNA inh RFP,FGF22 binding,Vif A3G,HNF4A DNA FP,MLL AF4-AF9 inh,ALR inh,Ecoli growth
C/C(=N\NC(=O)c1ccco1)c1cc2ccccc2o1,5,15,0.2,i,·,-0.2,7.3,-9,·
Cc1ccc(NC(=O)C2(c3ccc([N+](=O)[O-])cc3)CCCC2)cc1,-31,-29,-6.2,i,·,-1.6,2.5,-12,0.66
O=C(NCCc1cscn1)C1CCC(=O)N(Cc2ccc(Cl)cc2)C1 (centres undefined),15,11,-1.0,i,·,2.2,0.1,0,0.71
COc1ccc(S(=O)(=O)N2C[C@H](O)COC[C@@H]3O[C@H](CC(=O)NCCCN4CCOCC4)CC[C@H]32)cc1,0,0,-2.8,i,·,·,-2.3,·,·
O=C(Nc1ccc(SC(F)F)cc1)c1ccc(F)cc1,-1,-1,-2.2,i,-10%,-0.9,0.1,2,0.61
C=CCN1c2ccccc2[C@]23C[C@@H](C(=O)OC)N(C(=O)c4cccs4)C2=NC(C(=O)OC)=C(C(=O)OC)[C@H]13,·,·,·,i,·,-4.5,12,-2,·
Cc1ccccc1-c1ccc([C@@H]2[C@@H](CO)N3CCCCN(C(=O)c4cccnc4)C[C@H]23)cc1,3,-25,-1.3,i,·,·,4.7,·,·
COc1ccc2c(c1)c(C(=O)CN1CCOCC1)c(C)n2C,·,·,·,·,7%,-7.9,·,-30,0.72
O=C(c1ccccc1CCc1ccccc1)N1CCCC1,-7,-6,-5.7,i,·,0.8,-3.5,4,0.7
CC1C(=O)Nc2ccc(S(=O)(=O)N3CCN(c4ccccc4F)CC3)cc2NC1=O (centres undefined),-3,-4,2.8,i,·,4.4,2.6,-3,0.7
CCOc1ccc(N2C(=O)CC(SC(=NC)Nc3ccc4c(c3)OCO4)C2=O)cc1 (centres undefined),·,·,·,·,?,0.0,·,-3,0.7
CCCc1cc(=O)[nH]c2nnc(SCC(=O)NC3CCCCC3)n12,-6,-1,-3.9,i,2%,-2.3,-3.3,-1,0.68
NNC(=O)c1ccc2nc(-c3ccc(Br)cc3)cn2c1,-28*,-7.5*,-1.9*,i,3%,-1.8,2.1,25,·
CC(=O)N1CC=C2C(C#N)=C(N)C(C#N)(C#N)[C@H](c3ccoc3)[C@H]2C1,·,·,·,·,?,-11,·,-30,0.64
CC(=O)Cc1nsc(NC(=O)c2ccco2)n1,2,-1,-8.7,i,7%,-1.8,-1.5,4,0.7
CCn1c(CNC(=O)Cc2ccc(OC)cc2)nnc1SCC(=O)Nc1ccc(C(=O)O)cc1,12,9,-4.1,i,85%,1.6,-0.5,-5,0.68
O=C(Nc1nc2ccccc2n1CCN1CCOCC1)c1ccccc1,-16*,-5.2*,4.4*,i,·,4.6,0.0,·,0.62
O=C(Nc1ccc(Cl)cn1)c1cnn2cccnc12,·,·,·,·,?,3.2,·,0,0.78
COC(=O)c1cc(OC)c(OC)cc1NC(=O)CCNC(=O)c1ccco1,-3,-5,-1.6,i,·,2.2,0.3,-2,0.69
Cc1[nH][nH]c(=O)c1C(c1c(C)[nH][nH]c1=O)c1cn(Cc2ccccc2Cl)c2ccccc12,·,·,·,·,?,2.7,·,·,0.71
CCOC(=O)CCNC(C(=O)OCC)c1ccccc1 (centres undefined),·,·,·,·,0%,-3.0,·,0,0.75
COc1cccc(CNC(=S)Nc2cccc(Cl)c2C)c1,-17,-11,-4.0,i,·,4.8,3.0,-2,0.66
C[C@H](CO)N1C[C@H](C)[C@H](CN(C)CC2CCCCC2)Oc2ccc(NC(=O)C3CCCCC3)cc2C1=O,6,0,0.9,i,·,·,1.4,·,·
COc1ccccc1NC(=O)CSc1ncnc2c1oc1ccccc12,·,·,·,·,-9%,4.6,·,-3,0.68
C[C@H]1CN([C@@H](C)CO)C(=O)Cc2cc(NC(=O)Nc3ccc(F)cc3)ccc2O[C@H]1CN(C)S(=O)(=O)c1ccccc1,-7,-17,6.9,i,·,·,4.8,·,·
CCCNC(=O)C[C@H]1CC[C@H]2[C@@H](COC[C@@H](O)CN2Cc2ccc(Cl)c(Cl)c2)O1,-4,-5,-3.6,i,·,·,0.4,·,·
COc1ccc(CN2CCCCC2C)cc1OC (centres undefined),·,·,·,·,-2%,-0.1,·,13,0.68
COc1ccc(CCC(=O)N2CCN(S(=O)(=O)c3ccc(OC)cc3)CC2)cc1,8,3,4.0,i,4%,3.0,0.6,·,0.65
Cc1noc(C)c1S(=O)(=O)Nc1ccc2c(c1)C(=O)N([C@@H](C)CO)C[C@@H](C)[C@H](CN(C)Cc1ccc(-c3ccccc3)cc1)O2,0,-5,-2.4,i,·,·,5.4,·,·
CC(C)COP(=O)(OCC(C)C)C(O)c1ccc(N(C)C)cc1 (centres undefined),3,15,0.4,i,12%,0.6,-0.4,92*,0.67
O=C1/C(=C/c2ccccc2[N+](=O)[O-])COc2ccccc21,-6,1,-2.2,i,-7%,0.1,2.5,·,0.59
CCCCC(O)(CCCC)C(=O)NNc1ccccc1,-16,-18,-9.2,i,-5%,3.6,1.6,11,0.67

# An excerpt; rates above refer to the full screens.
